# PABP polyA inh = blocks human PABP binding to poly(A) RNA | fluorescence polarization | inhibition, % at 35 µM | 290,000 tested, 1% active | P11940;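 active = 50% or more with normal probe brightness, or confirmed in later tests; inconclusive = above 50% with abnormal brightness, or retests that disagree; inactive = below 50% or failed in later tests; about a fifth of its hits are not listed in these tables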;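 also: calls also rest on retests at 20 µM and on dose response follow-up; controls were probe without protein and protein plus probe with vehicle; some compounds called inactive have numbers as strong as hits; many hits fall short of the cut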
# Target sequence (P11940 whole entry, looked up): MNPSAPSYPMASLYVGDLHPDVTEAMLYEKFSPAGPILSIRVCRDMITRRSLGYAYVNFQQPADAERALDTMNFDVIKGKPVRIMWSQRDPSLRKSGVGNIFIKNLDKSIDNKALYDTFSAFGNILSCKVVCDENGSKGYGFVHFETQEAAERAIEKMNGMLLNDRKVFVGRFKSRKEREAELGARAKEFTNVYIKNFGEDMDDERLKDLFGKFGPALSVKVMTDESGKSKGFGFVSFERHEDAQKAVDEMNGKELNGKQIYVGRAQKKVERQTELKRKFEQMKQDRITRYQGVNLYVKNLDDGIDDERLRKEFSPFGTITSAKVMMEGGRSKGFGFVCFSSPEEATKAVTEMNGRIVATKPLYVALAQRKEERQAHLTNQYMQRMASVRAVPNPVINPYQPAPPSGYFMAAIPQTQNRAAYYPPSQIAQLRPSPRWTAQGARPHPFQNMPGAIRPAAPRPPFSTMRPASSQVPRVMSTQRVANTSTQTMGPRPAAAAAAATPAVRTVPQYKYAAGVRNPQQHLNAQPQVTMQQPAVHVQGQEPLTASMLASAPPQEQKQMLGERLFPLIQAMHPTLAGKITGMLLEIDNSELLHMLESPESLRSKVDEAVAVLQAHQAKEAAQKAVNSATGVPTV
# MT1-MMP act inh = inhibitors of human MT1-MMP activation; HT1080 RFP-PRO-GFP cells, GFP/RFP ratio fluorescence, overnight; percent of plate control window, DMSO zero; GFP/RFP ratio change, % at 20 µM; 360,000 tested, 0.061% active; P50281;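 active = GFP/RFP ratio change of at least 30% with cell ATP level not reduced by more than half and red fluorescence within 50% of control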; also: strong numbers were not always called active
#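 Assay system: RFP-PRO-GFP reporter HT1080 cells; read-out basis: GFP/RFP fluorescence ratio; benchmarks: DMSO wells and RFP-L50D-GFP cells; doses: 20 µM single dose, 1% DMSO; schedule: overnight cell settling, then overnight compound exposure, 37 °C, 5% CO2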
# HIV Env fusion = HIV envelope-mediated fusion inhibition. HeLa-JRFL Env/CEM21 cell fusion, luciferase. inhibition, % at 12.3 µM. 360,000 tested, 1.1% active. AID 651610;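 active = mean replicate inhibition score of at least 50 and every replicate individually at or above 50; inconclusive = only one of the two criteria met; inactive = mean below 50 and not all replicates reaching 50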;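 also: 0% = plate neutral controls and 100% = maraviroc near 300 nM; one replicate is shown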
# UUG fidelity = modulators of start codon recognition fidelity in yeast. AID 602363. 350,000 tested, 0.13% active. S. cerevisiae UUG-firefly luciferase reporter, luminescence/redox ratio. activity score, % at 18.7 µM;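 active = replicate mean at a twofold rise or more, about +100% in these data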;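 also: firefly luciferase made from a UUG start codon reports start codon fidelity; reporter light over untreated wells divided by growth signal over untreated wells; some hits fall short of that in this replicate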
# Rce1 inhib = inhibitors of yeast Ras-converting enzyme. Q03530. yeast membranes, quenched prenylated peptide cleavage fluorescence. calls only. 290,000 tested, 0.27% active. AID 2563;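 active = fall in fluorescence gain of 50% or more versus controls, with final raw signal at or below 3038400; inconclusive = same 50% fall but final raw signal above 3038400; inactive = fall in fluorescence gain under 50%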;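 also: plate controls were neutral control wells for no effect and wells lacking membranes for full effect; tested at 10 µM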
# CSC inhib = blocks cancer stem cells; cancer stem cell-like cells viability, luminescence; inhibition, % at 7.5 µM; 300,000 tested, 1.1% active; AID 2717;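 active = mean at 75% or more and at least half the replicates too; inconclusive = mean and replicates disagree; tested in HMLE shEcad cells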;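 also: 0% = median of negative and 100% = median of positive control wells; the first replicate is given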
# eIF4H FP inh = inhibitors of RNA binding by human eIF4H; eIF4H fluorescence polarization binding assay; inhibition, % at 35 µM; 290,000 tested, 0.94% active; AID 2012;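 active = 50% or more with normal probe brightness, or confirmed in later tests; inconclusive = above 50% with abnormal brightness, or retests that disagree; inactive = below 50% or failed in later tests; about a fifth of its hits are not listed in these tables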;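 also: calls also rest on retests at 20 µM and on dose response follow-up; 0% = protein and probe with vehicle and 100% = probe without protein; strong numbers were not always called active; many hits fall short of the cut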
# MT1-MMP act inh RFP = recorded beside MT1-MMP act inh, whose call it bears; RFP signal change, %; measured here: RFP expression control read;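 0 = vehicle wells; hits needed this value within 50% of zero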
# * marks the source's active call; other numbers are inactive results; i = inactive; ? = inconclusive; nt = not tested or not shown; & = joins results of further samples. Not all compounds are listed; count on the stated rates, not on these rows.
compound	PABP polyA inh	MT1-MMP act inh	MT1-MMP act inh RFP	HIV Env fusion	UUG fidelity	Rce1 inhib	CSC inhib	eIF4H FP inh
Cc1cccc(-n2nc3c(c2NC(=O)CCC2CCCCC2)CS(=O)C3)c1C (stereo unspecified)	-6	0	-2	-3	-17	i	-12	-10
COc1ccc(C[C@H]2CN3C(=NC[C@@H]3C(C)C)N2CCNC(=O)c2ccc(C)c(Br)c2)cc1	-15	-2	1	nt	1	i	16	-4
CN1C(=O)C(CC(=O)Nc2ccccc2F)N(NC(=O)c2ccc(Br)cc2)C1=S (stereo unspecified)	-2	-4	0	18	0	i	nt	-2
O=C(NC(=S)N1CCCc2ccccc21)c1ccccc1	16	-2	-5	nt	nt	i	nt	3
COc1ccc(NC(=O)COc2ccc(/C=C/c3cccc[n+]3C)cc2OC)cc1	45	-3	0	6	-27	i	nt	4
O=S(=O)(c1ccc(S(=O)(=O)N2CCN(C3CCCCC3)CC2)cc1)N1CCCCCC1	-2	-6	-2	nt	-16	nt	nt	4
CCNc1ccccc(-c2ccc3ccccc3n2)c1=O	-5	-1	6	-2	nt	i	0	?
CC1CCN(C(=O)c2cc3nc(C4CC4)cc(C(F)(F)F)n3n2)CC1	-17	-1	-2	13	-1	i	-13	8
CC1=CCC(C(=O)O)C(C(=O)Nc2ccc(-c3nc4ccc(C)cc4s3)cc2)C1 (stereo unspecified)	8	3	-3	i	nt	i	49	8
O=C(Nc1ccc2nc(-c3cccnc3)[nH]c2c1)C1CCCCC1	-3	3	2	nt	-17	i	0	2

# Record cards (already shown).
# Listed for `CC1CCN(C(=O)c2cc3nc(C4CC4)cc(C(F)(F)F)n3n2)CC1` → PABP polyA inh = -17; MT1-MMP act inh = -1; MT1-MMP act inh RFP = -2; HIV Env fusion = 13; UUG fidelity = -1; Rce1 inhib = i; CSC inhib = -13; eIF4H FP inh = 8
# Listed for `O=C(Nc1ccc2nc(-c3cccnc3)[nH]c2c1)C1CCCCC1` → PABP polyA inh = -3; MT1-MMP act inh = 3; MT1-MMP act inh RFP = 2; HIV Env fusion = nt; UUG fidelity = -17; Rce1 inhib = i; CSC inhib = 0; eIF4H FP inh = 2
# Listed for `CC1=CCC(C(=O)O)C(C(=O)Nc2ccc(-c3nc4ccc(C)cc4s3)cc2)C1` (stereo unspecified) → PABP polyA inh = 8; MT1-MMP act inh = 3; MT1-MMP act inh RFP = -3; HIV Env fusion = i; UUG fidelity = nt; Rce1 inhib = i; CSC inhib = 49; eIF4H FP inh = 8

# Next entries follow.
compound	PABP polyA inh	MT1-MMP act inh	MT1-MMP act inh RFP	HIV Env fusion	UUG fidelity	Rce1 inhib	CSC inhib	eIF4H FP inh
NS(=O)(=O)c1ccc(NC(=O)CN2CCN(Cc3ccccc3)CC2)cc1	2	4	5	nt	-6	i	-13	-1
Cc1ccc2[nH]c(=O)c(CN(CCc3ccccc3)Cc3nnnn3CC3CCCO3)cc2c1 (stereo unspecified)	-3	2	0	nt	-4	i	-2	1
COC(=O)c1ccc(NC(=O)COc2ccc(S(=O)(=O)NC(C)C)cc2)cc1	-2	3	-8	12	-24	i	-10	-3
CCOC(=O)N1CCN(c2ccc(O)cc2)CC1	-2	-7	-4	nt	-20	i	12	-9
O=C(CSc1ccc(-c2ccccc2)nn1)c1cccs1	8	1	-3	-20	nt	i	7	-6
COC(=O)c1ccsc1NC(=O)c1cccc(OC)c1	-6	-3	1	-2	nt	i	9	-1
Cc1cc(C)cc(C(=O)NCCC(=O)NCc2cc(=O)n(C)c(=O)n2C)c1	6	-1	3	-5	-18	i	-20	-10
C=CC[C@H](CC(=O)NCCO)C(=O)N[C@@H](COC(=O)[C@H](CC=C)CC(=O)OC(C)(C)C)Cc1ccccc1	nt	0	-1	1	32	nt	-4	nt
CCNC(=O)C1CCCN(C(=O)c2ccc(OC)c(OC)c2)CC1 (stereo unspecified)	nt	2	5	-11	10	nt	nt	nt
O=C(NCCc1c[nH]c2ccccc12)/C(=C/c1ccco1)NC(=O)c1ccco1	1	2	8	-29	nt	i	2	-6
COc1cc([N+](=O)[O-])ccc1NC(=O)CN1CCN(C(=O)c2ccco2)CC1	7	0	5	15	nt	i	-7	-8
CCC(C)c1ccc(NC(=O)NCCN2CCCCC2)cc1 (stereo unspecified)	7	-1	-2	-3	-12	i	-11	-3
Cc1cccc(N2CCN(C(=O)c3ccc4c(c3)NC(=O)C(CSCc3cccc(F)c3)N4)CC2)c1C (stereo unspecified)	14	nt	nt	nt	nt	i	1	36
CC(C)C(=O)N(c1ccc2oc(=O)sc2c1)S(=O)(=O)c1ccccc1	2	8	2	nt	-15	i	5	-13
N#C/C(=C1/CCCN1)c1ccccn1	-3	4	9	nt	-7	i	-3	-7
COC(=O)c1ccc(OC(=O)CS(=O)c2ccccc2[N+](=O)[O-])cc1 (stereo unspecified)	2	-4	0	12	nt	nt	-3	-10
COC(=O)c1c(NC(=O)C(=O)NCCCN2CCOCC2)sc2c1CCCC2	-20	0	3	5	-1	i	-3	-22
CCN1CCN(c2ccc(S(=O)(=O)N3CCOCC3)cc2NC(=O)c2ccc(C)c(C)c2)CC1	nt	-4	-3	nt	-4	i	-6	nt
CC(C)Oc1ccc(CCC(=O)N/N=C/c2ccncc2)cc1	-12	-5	1	12	-19	i	-9	7
Cc1nc2ccccc2n1CC(=O)NC1CCCC1	2	0	-2	13	1	i	2	-4

# Part of the list above, with two lines to a compound.
# Values run as follows: PABP polyA inh	MT1-MMP act inh	MT1-MMP act inh RFP	HIV Env fusion	UUG fidelity	Rce1 inhib	CSC inhib	eIF4H FP inh
- CC1=CCC(C(=O)O)C(C(=O)Nc2ccc(-c3nc4ccc(C)cc4s3)cc2)C1 (stereo unspecified)
 : 8	3	-3	i	nt	i	49	8
- Cc1ccc2[nH]c(=O)c(CN(CCc3ccccc3)Cc3nnnn3CC3CCCO3)cc2c1 (stereo unspecified)
 : -3	2	0	nt	-4	i	-2	1
- COc1ccc(NC(=O)COc2ccc(/C=C/c3cccc[n+]3C)cc2OC)cc1
 : 45	-3	0	6	-27	i	nt	4
- COc1ccc(C[C@H]2CN3C(=NC[C@@H]3C(C)C)N2CCNC(=O)c2ccc(C)c(Br)c2)cc1
 : -15	-2	1	nt	1	i	16	-4

# (list continues)
compound	PABP polyA inh	MT1-MMP act inh	MT1-MMP act inh RFP	HIV Env fusion	UUG fidelity	Rce1 inhib	CSC inhib	eIF4H FP inh
COc1ccc(C2NN=C(c3ccc(C)cc3)S2)cc1OC (stereo unspecified)	3	0	1	-138	nt	i	39	-11
COc1ccc2c(c1)c1nc3ccccc3nc1n2CCCN1C(=O)c2ccccc2C1=O	-4	-46	-7	5	nt	i	12	?
Cc1ccc(C(=O)NCC(=O)N2CCCC(C(F)(F)F)C2)s1 (stereo unspecified)	nt	0	-1	1	nt	i	-7	nt
CCOC(=O)C1(Cc2ccccc2)CCN(Cc2nccn2CC)CC1	-4	-5	2	21	nt	i	12	1
COc1cc(C)cc2c1OC(c1ccccc1)CC2=O (stereo unspecified)	nt	4	2	-4	-22	nt	nt	nt
Cc1ccc(S(=O)(=O)CC(=O)Nc2nnc(C(C)C)s2)cc1	3	-2	4	-1	-12	i	8	-5
Cc1ccc(S(=O)(=O)N(CC(=O)NN=C2CCN(C)CC2)c2ccc(F)cc2)cc1	2	1	6	-5	-8	i	-4	-6
CCc1ccc(/C=C2\SC(N3CCOCC3)=NC2=O)cc1	-18	-1	-3	4	-2	i	1	7
CCc1n[nH]c2c1C(=O)CC(C)(C)C2	2	1	7	nt	-23	i	-14	-4
O=C(NNC(=O)C1CC(=O)N(Cc2ccccc2)C1)c1ccc(F)cc1 (stereo unspecified)	nt	0	3	-2	-13	i	-7	nt
Cc1ccc(S(=O)(=O)N2CCN(C(=O)CCCOc3cccc(C)c3)CC2)cc1	nt	-2	-5	23	-14	nt	nt	nt
CCn1cc(S(=O)(=O)NC2CCCCC2)cn1	0	-2	2	-6	-4	i	-1	-10
O=C1C=C(O)CC(c2cccs2)C1 (stereo unspecified)	15	10	0	-101	2	i	4	10
COc1ccc(C=C2CCC3C(CCCC34OCCO4)C2=O)cc1 (stereo unspecified)	nt	-4	1	-6	-32	nt	nt	nt
O=C(/C=C/c1cccc(C(F)(F)F)c1)OCC(=O)N1CCN(c2ccccc2)CC1	nt	1	7	-6	-10	nt	-2	nt
O=C(COC(=O)/C=C/c1cccs1)Nc1cccc(S(=O)(=O)N2CCCC2)c1	-13	1	0	16	-1	i	-1	6
CCN(Cc1ccccc1)C(=O)Cc1ccc(OC)c(S(=O)(=O)N2CCOCC2)c1	nt	0	2	-2	-4	i	3	nt
COc1ccc(N2CCN(C(=O)CN(C)S(=O)(=O)c3cc(C)ccc3OC)CC2)cc1	-10	-4	1	-17	8	i	-7	-6
CCc1oc2ccccc2c1C(=O)CCN1CCCCC1	4	2	3	-13	-19	i	8	-5
COC(=O)c1cc(C)[nH]c2c(C)cc3nc4ccccc4c3c12	6	0	-10	6	-20	i	41	-9
c1ccc(CCCN2CCN(c3ccccn3)CC2)cc1	9	-1	3	6	47	i	2	-5
N#C/C(=C/c1ccc(-c2ccccc2[N+](=O)[O-])o1)C(N)=O	-6	-7	-4	13	nt	i	-21	35
OCC[C@@H]1C[C@@H](O)[C@H](O)[C@@]2(Cc3ccccc3CO2)O1	-14	2	3	-92	-12	i	-4	-4
COc1ccc(/C=N/NC(=O)CSc2nnc(C)n2-c2ccccc2)c(OC)c1OC	-6	7	-12	nt	3	i	0	-8
CCOc1ccc(NC(=O)CN(C)C(=O)c2sccc2-c2ccccc2)cc1OCC	nt	-1	-2	12	-3	nt	nt	nt
CC(/C=N/Nc1nnc(C)c(=O)[nH]1)=C\c1ccccc1	-16	2	2	nt	-9	i	-8	-6
COc1ccccc1C=CC(=O)C=Cc1ccccc1OC	nt	9	0	i	-16	nt	nt	nt
COc1cc2c(cc1OC)CN(c1ccc([N+](=O)[O-])cc1C#N)CC2	2	-2	-4	-5	nt	i	3	-7
Cc1ccc(-c2nc(C#N)c(NCCCn3ccnc3)o2)cc1	-1	1	3	-13	nt	i	-10	4
O=C(CCc1c[nH]c2ccccc12)NC(Cc1ccccc1)C(=O)O (stereo unspecified)	5	-5	0	6	-10	i	2	2
C[C@@H]1CN([C@@H](C)CO)C(=O)c2cc(Br)cnc2O[C@H]1CN(C)S(=O)(=O)c1ccccc1	nt	1	3	29	10&10	nt	nt	nt
Oc1ccc2ccccc2c1C=Nc1ccc(N2CCOCC2)cc1	?	nt	nt	-21	nt	i	-9	?
CC(C)(Oc1ccc(Br)cc1Cl)C(=O)Nc1ccon1	0	2	2	-21	-17	i	2	7
Cc1ccc(C2CC(c3cccs3)=NN2C(=O)CSc2nc(=O)n3cc(C)ccc3n2)cc1 (stereo unspecified)	nt	1	-3	2	nt	i	2	nt
O=C(NCc1ccccc1)c1cnsn1	-5	12	4	nt	-22	i	-5	8
COc1ccc(-c2cc(=O)[nH]c(N3CCN(Cc4ccccc4)CC3)n2)cc1	4	-5	-5	-3	-22	i	-2	14
c1ccc(Nc2nc(N3CCNCC3)nc(N3CCOCC3)n2)cc1	-3	-18	-5	33	-18	i	-5	1
O=c1[nH]c2cc([N+](=O)[O-])c([N+](=O)[O-])cc2[nH]c1=O	14	0	-3	-58	-29	i	3	10
O=C(COC(=O)C1CCN(/C=C/C(=O)C(F)(F)F)CC1)Nc1ccccc1	-6	-2	2	6	nt	i	12	16
N#C/C(=C(/O)c1ccc(Cl)c([N+](=O)[O-])c1)c1nc2ccccc2[nH]1	-14	-2	-30	11	-25	i	8	3

# Screening data deposited in PubChem BioAssay by several laboratories.
